Screening data: PubChem BioAssay, several laboratories
PABP FP inh – blocks human PABP binding to poly(A) RNA | hit rate 1% among 290,000 | inhibition, % at 35 µM | AID 2014 | P11940 | fluorescence polarization;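 active = 50% or more with normal probe brightness, or confirmed in later tests; about a fifth of its hits are not listed in these tables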;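 note: calls also rest on retests at 20 µM and on dose response follow-up; controls were probe without protein and protein plus probe with vehicle; some compounds called inactive have numbers as strong as hits; many hits fall short of the cut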
CSC inhib – blocks cancer stem cells. cancer stem cell-like cells viability, luminescence. inhibition, % at 7.5 µM. hit rate 1.1% among 300,000. AID 2717;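 active = mean at 75% or more and at least half the replicates too; tested in HMLE shEcad cells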;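 note: 0% = median of negative and 100% = median of positive control wells; the first replicate is given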
Env fusion inh – HIV envelope-mediated fusion inhibition; inhibition, % at 12.3 µM; AID 651610; HeLa-JRFL Env/CEM21 cell fusion, luciferase; hit rate 1.1% among 360,000;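 active = mean replicate inhibition score of at least 50 and every replicate individually at or above 50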;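 note: 0% = plate neutral controls and 100% = maraviroc near 300 nM; one replicate is shown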
Rce1 inhib – inhibitors of yeast Ras-converting enzyme. Q03530. AID 2563. hit rate 0.27% among 290,000. calls only. yeast membranes, quenched prenylated peptide cleavage fluorescence;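 active = fall in fluorescence gain of 50% or more versus controls, with final raw signal at or below 3038400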;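 note: plate controls were neutral control wells for no effect and wells lacking membranes for full effect; tested at 10 µM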
Target sequence (Q03530 whole entry, looked up): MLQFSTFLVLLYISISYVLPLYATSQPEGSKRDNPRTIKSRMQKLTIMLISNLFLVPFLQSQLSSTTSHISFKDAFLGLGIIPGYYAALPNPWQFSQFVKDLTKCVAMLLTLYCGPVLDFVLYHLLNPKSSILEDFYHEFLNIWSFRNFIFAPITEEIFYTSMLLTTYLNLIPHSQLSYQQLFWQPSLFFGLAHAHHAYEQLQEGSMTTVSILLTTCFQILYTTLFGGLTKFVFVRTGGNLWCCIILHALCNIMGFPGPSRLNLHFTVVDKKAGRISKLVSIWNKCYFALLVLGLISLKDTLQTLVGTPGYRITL
MT1-MMP act inh – inhibitors of human MT1-MMP activation. hit rate 0.061% among 360,000. HT1080 RFP-PRO-GFP cells, GFP/RFP ratio fluorescence, overnight; percent of plate control window, DMSO zero. AID 651647. P50281. GFP/RFP ratio change, % at 20 µM;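 active = GFP/RFP ratio change of at least 30% with cell ATP level not reduced by more than half and red fluorescence within 50% of control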; note: strong numbers were not always called active
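Test system: HT1080 RFP-PRO-GFP cells; Benchmarks: DMSO and RFP-L50D-GFP cell wells; Timing: cells overnight before dosing, compound overnight, 37 °C, 5% CO2; Compound: one 20 µM compound dose with 1% DMSO; Read-out: GFP/RFP fluorescence ratio.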
eIF4H inh – inhibitors of RNA binding by human eIF4H; Q15056; eIF4H fluorescence polarization binding assay; inhibition, % at 35 µM; hit rate 0.94% among 290,000;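 active = 50% or more with normal probe brightness, or confirmed in later tests; about a fifth of its hits are not listed in these tables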;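 note: calls also rest on retests at 20 µM and on dose response follow-up; 0% = protein and probe with vehicle and 100% = probe without protein; strong numbers were not always called active; many hits fall short of the cut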
Yeast UUG start – yeast start codon fidelity modulation | hit rate 0.13% among 350,000 | S. cerevisiae UUG-firefly luciferase reporter, luminescence/redox ratio | activity score, % at 18.7 µM;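 active = replicate mean at a twofold rise or more, about +100% in these data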;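 note: firefly luciferase made from a UUG start codon reports start codon fidelity; reporter light over untreated wells divided by growth signal over untreated wells; some hits fall short of that in this replicate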
MT1-MMP act inh RFP – recorded beside MT1-MMP act inh, whose call it bears; RFP signal change, %; measured here: RFP expression control read;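 0 = vehicle wells; hits needed this value within 50% of zero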
Starred values were filed as active, the others as inactive; i = inactive; x = no result given; & = joins results of further samples.

Results follow in this order: PABP FP inh, CSC inhib, Env fusion inh, Rce1 inhib, MT1-MMP act inh, MT1-MMP act inh RFP, eIF4H inh, Yeast UUG start
O=C(c1ccccc1Oc1ccccc1)N1CCN(c2ccc(F)cc2)CC1
  -14, -12, x, i, 1, -3, -10, 5
CCOc1ccc(/C=C/c2c([N+](=O)[O-])c(=O)n(C)c(=O)n2C)cc1
  -10, -7, 7, i, -2, -8, -4, x
COCCCNC(=O)CCn1c(=O)c2ccccc2n(CC(=O)Nc2cc(Cl)ccc2C)c1=O
  -3, -16, x, i, -4, -4, -8, -7
CCNc1nc(NCC)nc(N/N=C/c2ccc(OC)cc2)n1
  0, 37, -3, i, 3, -1, -10, -21
O=C1C(Cl)=C(N2CCN(c3ccccc3[N+](=O)[O-])CC2)C(=O)c2ccccc21
  -3, 28, 12, i, 5, 13, 21, -11
Cc1cn([C@H]2C[C@H](O)[C@@H](/C=C/C(=O)NCc3cccc4ccccc34)O2)c(=O)[nH]c1=O
  x, x, 5, x, 4, 2, x, -19
O=C(CSc1nnnn1-c1ccccc1)NCC1(N2CCOCC2)CCCCC1
  x, -7, -12, x, -3, 0, x, -16
Cc1ccccc1Cn1nc(C)c(NC(=O)c2sc3ccccc3c2Cl)c1C
  4, 36, 42, i, -4, -19, -1, 5
CN(C)c1nc(N)nc(CSc2n[nH]c(-c3ccccc3)n2)n1
  -12, -1, -21, i, 5, 4, -8, -6
O=C(NCc1cccnc1)C12CC3CC(CC(C3)C1)C2
  -3, -5, -1, i, -1, 3, 18, -10
CCn1nc(NC(=O)C2CCCO2)c2cc3cccc(C)c3nc21 (stereo unspecified)
  9, 8, 0, i, -1, -2, 6, -15
CCOC(=O)C1CCN(C(=O)CCn2c(=O)oc3ccccc32)CC1
  x, x, 5, x, -2, 4, x, -7
Cc1ccc(SCc2[nH]nc3c2C(c2ccc(C)o2)C(C#N)=C(N)O3)cc1 (stereo unspecified)
  12, -8, x, i, 1, 0, 9, -16
CC(=O)Nc1ccc(C(=O)CSc2nnnn2C(C)C)cc1
  0, -8, x, i, 3, 2, -4, -4
CCOc1cc(/C=C(\C#N)C(=O)NCC2CCCO2)ccc1O (stereo unspecified)
  7, -9, 16, i, 5, 5, 7, -16
CC(C)c1ccccc1OCCNC(=S)NC(=O)c1cccnc1
  -10, -11, -8, i, -6, -5, 1, 1
COc1ccc(Nc2nc3ccccc3nc2NS(=O)(=O)c2cccs2)cc1
  14, 22, -11, i, 2, -5, -5, -18
CC(=O)N1CCN(c2ccc(NC(=O)c3ccccc3Cl)cc2)CC1
  9, -13, 0, x, 1, 3, -11, -2
COc1cccc(CNC(=O)COC(=O)C23CC4CC(CC(Cl)(C4)C2)C3)c1
  x, 14, -10, x, 0, 0, x, -16
CCN(CC)CCNC(=O)Cn1cnc2sc(C)c(S(=O)(=O)N3CCN(c4ccccc4OC)CC3)c2c1=O
  -8, -10, -16, i, 1, 2, 6, -4
CC(C)(C)CN1C(=O)C(=O)NC[C@H]1Cc1cccc2ccccc12
  2, -16, 13, i, 6, 8, 2, -2
Cn1cc([N+](=O)[O-])c(C(=O)Nc2ccc(-c3nc4ccccc4o3)cc2)n1
  9, 104*, -62, i, -23, -19, 20, x
NC(=O)c1ccc(NC(=O)c2ccc3c(c2)OCO3)cc1
  5, -4, x, i, 1, 5, -4, -24
C=CCn1c(-c2cccc(S(=O)(=O)N3CCOCC3)c2)n[nH]c1=S
  x, x, 2, x, 8, 2, x, -26
COc1cccc(S(=O)(=O)N(C)C[C@H]2OCc3cnnn3CCCC(=O)N([C@@H](C)CO)C[C@H]2C)c1
  x, x, 13, x, 0, 0, x, -29&4
O=C(NCCN1CCOCC1)c1noc2c1CCc1ccccc1-2
  1, -6, x, i, 5, 3, -1, -20
CC(C)(C)OC(=O)N1CCC[C@@H]1C(=O)N1CCC(C(=O)O)CC1
  3, -6, x, i, 0, 1, 6, -22
CCOc1c(Br)cc(CNCc2cccs2)cc1OC
  1, 4, 14, i, -2, 1, -9, x
CCc1ccc(NC(=S)Nn2cnnc2)cc1
  -11, 4, -8, i, 0, 2, 4, x
O=C1C2C3CCC(C3)C2C(=O)N1CNc1ccccc1 (stereo unspecified)
  -10, 1, -7, i, -1, 3, -8, x

As a short view, 4 of the compounds above:
Results follow in this order: PABP FP inh, CSC inhib, Env fusion inh, Rce1 inhib, MT1-MMP act inh, MT1-MMP act inh RFP, eIF4H inh, Yeast UUG start
CC(C)(C)OC(=O)N1CCC[C@@H]1C(=O)N1CCC(C(=O)O)CC1
  3, -6, x, i, 0, 1, 6, -22
CCOc1c(Br)cc(CNCc2cccs2)cc1OC
  1, 4, 14, i, -2, 1, -9, x
CCc1ccc(NC(=S)Nn2cnnc2)cc1
  -11, 4, -8, i, 0, 2, 4, x
O=C1C2C3CCC(C3)C2C(=O)N1CNc1ccccc1 (stereo unspecified)
  -10, 1, -7, i, -1, 3, -8, x

Remaining list, next part.
Results follow in this order: PABP FP inh, CSC inhib, Env fusion inh, Rce1 inhib, MT1-MMP act inh, MT1-MMP act inh RFP, eIF4H inh, Yeast UUG start
COc1cc2[nH]c(=S)n(NC(=O)CC(C)C)c(=O)c2cc1OC
  -2, 0, -4, i, 2, 1, 12, -5
O=C(c1cccc(Cl)c1)N(Cc1cccs1)C1CCS(=O)(=O)C1 (stereo unspecified)
  0, x, x, i, 2, 2, -4, -9
O=C(CN1C(=O)C2CC=CCC2C1=O)NC1CCCc2ccccc21 (stereo unspecified)
  33, 1, 11, i, 3, 7, -2, -5
CC(=O)Nc1ccc(NC(=O)c2ccccc2Sc2ccc([N+](=O)[O-])cc2Cl)cc1
  -2, -26, 14, i, -5, 1, -4, 3
Cc1cc2nc(SC(C)C(=O)O)[nH]c2cc1C (stereo unspecified)
  4, x, -159, i, -2, 5, -1, -17
O=C(CCC1CCCCC1)Nc1nncs1
  0, -10, 37, i, -1, 1, 4, -17
Cc1ccc(C)c(NC(=O)CSc2nnc(CNC(=O)c3ccco3)n2C)c1
  0, 12, -23, i, 2, 0, 4, -8
NS(=O)(=O)c1ccc(NC(=O)CN2C(=O)CCC2=O)cc1
  -6, -3, 3, i, 1, -3, -4, x
N#CCC(=O)N1CCn2c1nc1ccccc12
  4, -11, x, i, 2, 3, 1, -11
CCCn1c(SC(C)C(=O)NCC2CCCO2)nc2sc(CC)cc2c1=O (stereo unspecified)
  9, -8, 0, i, 0, -3, 4, -14
NC(=S)NN=CCn1cc([N+](=O)[O-])c(=O)[nH]c1=O
  x, x, -11, x, 0, -3, x, -11
C#CCOCCOCCOCCNc1nc(N2CCN(C(=O)Cn3cc(CCO)nn3)CC2)nc(N2CCN(C(=O)[C@H](C(C)C)n3cc(CCO)nn3)CC2)n1
  6, -4, 10, i, 0, 2, 9, -1
CN1c2ccsc2/C(=N/Nc2ccc(F)cc2)CS1(=O)=O
  5, -23, -42, i, 5, -2, -8, -22
OCCC1CN(Cc2ccc(F)cc2)CCN1CCc1ccccc1 (stereo unspecified)
  7, 10, -7, i, x, x, -1, -19
CCOc1ccc(S(=O)(=O)n2cc(F)c(=O)[nH]c2=O)cc1[N+](=O)[O-]
  0, 1, -5, i, -1, 3, -14, 47
Cc1ccc(SCCC(=O)NNC(=O)c2ccccc2F)cc1
  x, -17, -2, x, 0, 4, x, -13
CCC(C)(C)NC(=O)C1CCN(S(=O)(=O)c2cccs2)CC1
  -2, x, 3, i, 0, 0, -18, -6
Cc1ccc(SCc2cc(=O)[nH]c(/N=C(\N)Nc3ccc(C)c(C)c3)n2)cc1
  -9, 6, x, i, 4, -3, -6, -11
CCCCN(C(=O)/C=C/c1ccc(OC)cc1)C1CCS(=O)(=O)C1 (stereo unspecified)
  x, 12, -12, i, 3, -2, x, -8
CCc1ccc(OCC(=O)NC(=S)Nc2ccc(C(C)=O)cc2)c(Br)c1
  1, x, x, i, 7, 7, -2, -25
O=C(CNC(=O)c1ccco1)Nc1cccc(Cl)c1
  3, -12, 2, i, 0, 2, 2, -17
COC(=O)N1CC=CC1(C)C(=O)NCc1cc(F)cc(C(F)(F)F)c1 (stereo unspecified)
  3, -3, -16, i, 4, 7, 2, -9
COc1cc(NC(=O)c2ccc(-c3cn[nH]c3)c3ccoc23)cc(OC)c1OC
  x, x, 2, x, 9, -2, x, -4
CCO[C@@H]1OC(C(=O)N2CCCCCCC2)=C[C@H](c2ccc(C(F)(F)F)cc2)[C@H]1CCCO
  -3, -1, 35, i, -1, -5, 5, -4
CCOC(=O)N1CCN(C(=O)CNC(=O)c2ccc(Br)cc2)CC1
  -12, 5, 4, i, 0, -2, -2, -7
CC(=O)NC(Cc1ccccc1)C(C)=O (stereo unspecified)
  0, 14, 5, i, 0, 3, -2, -5
CCOC(=O)C1CCCN(CC(=O)Nc2cccc(C(C)=O)c2)C1 (stereo unspecified)
  2, 6, 14, i, -3, 0, -6, x
c1ccc(CCc2cn(C[C@H]3CC[C@@H]([C@@H]4CC[C@H](Cn5cc(CCc6ccccc6)nn5)O4)O3)nn2)cc1
  15, 13, 9, i, 1, -7, -1, -13
c1ccc(C2[C@H]3CN(CC4CCCCC4)[C@H](c4ccccc4)C34CC2(c2cccnc2)C4)cc1 (stereo partly specified)
  -3, 10, -11, i, -8, -10, -10, 2
O=C(CNC(=O)c1ccccc1)NCC(=O)OCC(=O)c1ccccc1
  7, -11, 8, i, 0, 1, -11, x
Clc1ccc(NC2=NCCC2)cc1Cl
  7, -10, x, i, 7, 9, 2, -13
CCOc1ccc(-n2c(COc3ccccc3)nnc2SCC(N)=O)cc1
  4, 12, i, i, -5, -5, 3, -5
CC(=O)N1CCCc2cc(S(=O)(=O)N3CCC(C)CC3)ccc21
  13, 0, x, i, 4, 6, 2, 2
CC(C)(C)c1ccc(S(=O)(=O)N2CCC(N3CCCCC3)CC2)cc1
  -6, 38, 14, i, 2, -1, 1, -3
O=c1oc2ccccc2n1Cc1cccc(C(F)(F)F)c1
  x, 3, 7, i, 1, -1, x, x
O=C(Nc1ccccc1Cl)C1C(c2ccccc2)C1(Cl)Cl (stereo unspecified)
  -11, 9, -4, i, x, x, -6, -3
O=C(OCC(=O)N1CCN(C(=O)c2ccco2)CC1)C1=COCCO1
  4, -5, -28, i, 1, 1, -5, 7
CC1Sc2ccc(S(=O)(=O)N3CCC(C(N)=O)CC3)cc2NC1=O (stereo unspecified)
  -4, 2, 2, i, 4, 1, -17, -7
CCOC(=O)c1c(SCc2ccccc2)n[nH]c1N
  -6, 0, -2, i, 3, -2, -8, -12
CC(=O)c1c(C(C)=O)c(C)n(-c2ccc(N)cc2)c1C
  -6, 8, x, i, 0, 4, 3, -9
O=C1Nc2ccccc2/C1=N/N=C/c1cccc(O)c1
  5, -8, -55, i, -2, 9, 4, -11
